AF4-AF9 inh: inhibitors of AF4 peptide binding to AF9, primary screen, biochemical, AlphaScreen, biotin-AF4 peptide, FLAG-AF9, single point; Protein AF-9 (Homo sapiens), P42568; inhibition, % at 10 µM; 0.47% of 350,000 active; AID 651704, 2012;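 active means every replicate reaching a set inhibition limit, whatever the replicate mean, cut at about 25% in these data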;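 further: 0% = plate neutral control median and 100% = total signal loss; the record names both 10 and 1 µM as test concentration; the first replicate is given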
Target sequence (P42568 whole entry, looked up): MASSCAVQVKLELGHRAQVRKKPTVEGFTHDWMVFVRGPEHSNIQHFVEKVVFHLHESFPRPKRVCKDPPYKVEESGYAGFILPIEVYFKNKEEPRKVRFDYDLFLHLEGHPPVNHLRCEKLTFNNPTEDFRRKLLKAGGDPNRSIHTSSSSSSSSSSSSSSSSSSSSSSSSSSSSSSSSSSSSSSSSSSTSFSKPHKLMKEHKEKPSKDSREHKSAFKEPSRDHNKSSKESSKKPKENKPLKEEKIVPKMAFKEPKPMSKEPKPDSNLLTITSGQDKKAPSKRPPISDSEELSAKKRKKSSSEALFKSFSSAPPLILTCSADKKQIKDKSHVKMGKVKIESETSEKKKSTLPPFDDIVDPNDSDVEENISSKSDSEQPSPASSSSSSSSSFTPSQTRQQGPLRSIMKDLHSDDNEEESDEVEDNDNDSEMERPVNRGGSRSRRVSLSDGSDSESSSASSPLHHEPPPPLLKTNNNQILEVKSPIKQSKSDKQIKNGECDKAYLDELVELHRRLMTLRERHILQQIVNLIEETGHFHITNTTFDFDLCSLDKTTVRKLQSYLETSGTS
The depositor's hits bear a star; & = joins results of further samples. An excerpt, so the mix of outcomes need not match the whole.

Preview (seven entries):
SMILES	AF4-AF9 inh
CN1C(=O)c2cc(NC(=O)C3CCOCC3)ccc2OC[C@H]2O[C@@H](CC(=O)NCc3ccc4c(c3)OCO4)CC[C@@H]21	-1.1
Cc1ccc(S(=O)(=O)Nc2ccc3c(c2)C(=O)N([C@@H](C)CO)C[C@@H](C)[C@H](CN(C)CC2CCCCC2)O3)cc1	-2.6
Cc1cc(Br)c2nc(-c3ccc(F)cc3)c(Cc3cccc(Cl)c3)n2c1	-2.9
C[C@H](CO)N1C[C@H](C)[C@@H](CN(C)S(C)(=O)=O)OCCCC[C@H](C)Oc2ccc(NS(=O)(=O)c3ccccc3)cc2C1=O	1.8
CC(=O)OC1CCC2C3CCc4cc(O)ccc4C3CCC12C (centres undefined)	-3.5
O=C(C1CCC1)N1CC(=O)N2[C@@H](CO)[C@@H](c3ccc(C4=CCCCC4)cc3)[C@@H]2C1	1.6
O=C(NCc1ccncc1)[C@@H]1CCCN1C(=O)[C@H]1CCCN1C(=O)c1cccs1	-1.5

The whole of this part, from the start:
SMILES	AF4-AF9 inh
CN1C(=O)c2cc(NC(=O)C3CCOCC3)ccc2OC[C@H]2O[C@@H](CC(=O)NCc3ccc4c(c3)OCO4)CC[C@@H]21	-1.1
Cc1ccc(S(=O)(=O)Nc2ccc3c(c2)C(=O)N([C@@H](C)CO)C[C@@H](C)[C@H](CN(C)CC2CCCCC2)O3)cc1	-2.6
Cc1cc(Br)c2nc(-c3ccc(F)cc3)c(Cc3cccc(Cl)c3)n2c1	-2.9
C[C@H](CO)N1C[C@H](C)[C@@H](CN(C)S(C)(=O)=O)OCCCC[C@H](C)Oc2ccc(NS(=O)(=O)c3ccccc3)cc2C1=O	1.8
CC(=O)OC1CCC2C3CCc4cc(O)ccc4C3CCC12C (centres undefined)	-3.5
O=C(C1CCC1)N1CC(=O)N2[C@@H](CO)[C@@H](c3ccc(C4=CCCCC4)cc3)[C@@H]2C1	1.6
O=C(NCc1ccncc1)[C@@H]1CCCN1C(=O)[C@H]1CCCN1C(=O)c1cccs1	-1.5
O=C(Nc1ccc2c(c1)[C@@H]1C[C@@H](CC(=O)N3CCOCC3)O[C@@H](CO)[C@@H]1O2)C1CCOCC1	-0.4
O=C(NCc1ccc(F)cc1)[C@@H]1[C@@H](CO)[C@@H]2Cn3c(cccc3=O)[C@H]1N2C(=O)Cc1ccccn1	-0.1
COCC#Cc1cnc2c(c1)C(=O)N([C@H](C)CO)C[C@H](C)[C@@H](CN(C)C(=O)Nc1ccc(OC)cc1)O2	0.9
C[C@@H]1CN([C@@H](C)CO)C(=O)c2cc(NC(=O)CCC(F)(F)F)ccc2O[C@@H]1CN(C)Cc1ccncc1	-15
O=S(=O)(c1ccc(F)cc1)N1CC[C@H]2[C@H](CO)Nc3ccc(Br)cc3[C@H]21	1.6
O=S(=O)(c1ccc(F)cc1)N1[C@@H]2CNC[C@H]1C2c1ccc(-c2cccnc2)cc1 (some centres undefined)	-1.6&-2.6
O=C(Cc1ccccc1)N[C@@H]1CC[C@@H](CC(=O)N2CCOCC2)O[C@H]1CO	-13
CCOC(=O)C1(C)CCCN(C(=O)c2ccc(F)cc2Cl)C1 (centres undefined)	3.4
C[C@@H]1CN([C@H](C)CO)C(=O)c2cccc(NS(=O)(=O)c3ccccc3)c2O[C@H]1CN(C)C(=O)Nc1cccc2ccccc12	-1.5
CCCNC(=O)N(C)C[C@@H]1Oc2cc(C#CCN(C)C)ccc2S(=O)(=O)N([C@H](C)CO)C[C@H]1C	-1.8
COc1cccc(-c2ccc3n(c2=O)C[C@H]2[C@H](CO)[C@@H](C(=O)NC4CCCC4)N[C@@H]32)c1	0.4
C/C=C/c1ccc([C@H]2[C@@H](CO)N(C(=O)C3CCCC3)[C@H]2CNCCC)cc1	-1.1
COC(=O)[C@@H]1[C@@H](CO)[C@@H]2Cn3c(ccc(-c4ccc(F)cc4)c3=O)[C@@H]2N1C(=O)C1CC1	-0.2
COc1cccc(NC(=O)Nc2ccc3c(c2)C(=O)N(C)C[C@@H](OC)[C@@H](C)CN(CC2CC2)[C@@H](C)CO3)c1	8.6
CN(C)C(=O)C[C@H]1CC[C@H]2[C@@H](COC[C@@H](O)CN2CC2CCCCC2)O1	-0.2
C[C@H](NC(=O)C[C@H]1C=C[C@@H](NC(=O)c2cccnc2)[C@@H](CO)O1)c1ccccc1	-24
C[C@@H]1CCCCO[C@H](CN(C)S(C)(=O)=O)[C@@H](C)CN([C@H](C)CO)C(=O)c2cc(NC(=O)c3ccccc3)ccc2O1	2.0
CC(C)CC#Cc1ccc2c(c1)O[C@H](CN(C)C(=O)CC1CC1)[C@H](C)CN([C@H](C)CO)S2(=O)=O	1.3
O=C(C[C@H]1CC[C@H](NC(=O)c2cccc(F)c2)[C@H](CO)O1)Nc1nccs1	-1.1
CN1c2ccc(-c3cccc(F)c3)cc2[C@@H]2[C@@H](CCN2C(=O)c2ccc3c(c2)OCO3)[C@@H]1CO	-1.1
O=C(c1ccc(F)cc1)N1CC(=O)N2[C@@H](CO)[C@@H](c3ccc(C#Cc4ccc(F)cc4)cc3)[C@@H]2C1	-2.4
COCCNC(=O)C1(C)CCCN(C(=O)c2c(F)ccc(C)c2F)C1 (centres undefined)	-0.3
C=C1C(=O)[C@]23C[C@H]1CCC2[C@@]1(C)C(C[C@@H]3O)[C@](C)(C(=O)O)CC[C@@H]1O (some centres undefined)	-5.1
O=C(O)c1c(Cl)cccc1Nc1ccccc1	-0.7
COc1ccc(S(=O)(=O)N(C)C[C@@H]2Oc3ccc(NC(=O)Nc4ccc(F)cc4)cc3C(=O)N([C@H](C)CO)C[C@H]2C)cc1	1.8
Cc1noc(C)c1NC(=O)N(C)C[C@H]1Oc2ccc(NC(=O)C3CCCCC3)cc2C(=O)N([C@@H](C)CO)C[C@@H]1C	-3.7
O=C(C[C@@H]1CC[C@@H](NC(=O)c2cccnc2)[C@@H](CO)O1)NCc1ccncn1	-3.7
Cc1ccc(-c2ccc3c(c2)O[C@@H](CN(C)C(=O)Nc2ccc(F)cc2)[C@H](C)CN([C@@H](C)CO)S3(=O)=O)cc1	1.8
Cc1ccc(-c2ccc3c(c2)O[C@H](CN(C)Cc2ccc(C(=O)O)cc2)[C@H](C)CN([C@H](C)CO)S3(=O)=O)cc1	2.4
O=C(Nc1ccc2c(c1)[C@@H]1C[C@H](CC(=O)N3CCCCC3)O[C@@H](CO)[C@@H]1O2)C1CCC1	-1.5
C[C@H]1CN([C@@H](C)CO)C(=O)Cc2cc(NC(=O)Nc3ccccc3)ccc2O[C@@H]1CN(C)Cc1ccc(C(F)(F)F)cc1	-1.4
CCc1ccc(C(O)c2ncc(-c3cccc(C)c3)[nH]2)cc1 (centres undefined)	-0.3
COc1ccc(S(=O)(=O)Nc2ccc3c(c2)C(=O)N([C@@H](C)CO)C[C@H](C)[C@@H](CN(C)Cc2ccc4c(c2)OCO4)O3)cc1	0.1
CCCC(=O)Nc1ccc2c(c1)OC[C@H](C)N(C(=O)c1ccccn1)C[C@@H](C)[C@@H](OC)CN(C)C2=O	-36
C[C@@H]1CCCCO[C@H](CN(C)Cc2ccc3c(c2)OCO3)[C@H](C)CN([C@H](C)CO)C(=O)c2cc(NC(=O)Nc3ccc(C(F)(F)F)cc3)ccc2O1	2.0
CC1CCCC(NC(=O)CCCCCn2c(=S)[nH]c3ccsc3c2=O)C1C (centres undefined)	-4.7
C/C=C/c1ccc([C@H]2[C@H](CO)N3CCCCN(S(=O)(=O)c4cccs4)C[C@@H]23)cc1	2.5
COc1ccc(NC(=O)Nc2ccc3c(c2)C(=O)N([C@@H](C)CO)C[C@H](C)[C@H](CN(C)S(=O)(=O)c2cccs2)OCCCC[C@H](C)O3)cc1	-0.6
C[C@H]1CN([C@@H](C)CO)S(=O)(=O)c2ccc(C#Cc3ccccn3)cc2O[C@H]1CN(C)C	-1.0
C[C@@H]1CN([C@H](C)CO)C(=O)c2cc(NC(=O)C3CC3)ccc2O[C@@H]1CN(C)S(=O)(=O)c1ccc(F)cc1	6.3
COc1cc(C=C(C#N)C(=O)c2ccccc2)cc(OC)c1OC	1.0
C[C@@H]1CN([C@H](C)CO)C(=O)c2cc(NC(=O)Cc3ccccc3)ccc2O[C@H]1CN(C)Cc1ccc(Cl)c(Cl)c1	-1.7
COC(=O)Cc1ccc(OC2(C)CCN(Cc3ccccc3OC(F)F)C2)cc1 (centres undefined)	2.0
Cc1cccc(S(=O)(=O)N2CCCCN3[C@H](CO)[C@H](c4ccc(C#C[C@H](C)O)cc4)[C@H]3C2)c1	4.6
O=C(CC1CC1)N1CC(=O)N2[C@@H](CO)[C@H](c3ccc(C#Cc4cccc(F)c4)cc3)[C@@H]2C1	-3.9
COc1ccccc1Cc1c(C(C)(C)C)nc2ccc(C)cn12	2.3
C[C@@H]1CN([C@H](C)CO)C(=O)c2cc(NC(=O)NC3CCCCC3)ccc2O[C@H]1CN(C)Cc1ccncc1	-2.6
O=C(CC1CC1)N1[C@H](CO)[C@@H](c2ccccc2)C12CN(S(=O)(=O)c1ccccc1)C2	6.2
O=C(C[C@H]1C[C@H]2c3cc(NC(=O)C4CCOCC4)ccc3O[C@H]2[C@@H](CO)O1)NCc1ccc2c(c1)OCO2	-1.3
C[C@H]1CN([C@@H](C)CO)C(=O)c2cc(NC(=O)CCN3CCOCC3)ccc2O[C@H]1CN(C)S(=O)(=O)c1ccc(Cl)cc1	0.8
COc1ccc(S(=O)(=O)N[C@@H]2CC[C@H](CC(=O)N3CCc4ccccc4C3)O[C@@H]2CO)cc1	-0.3
COc1cccc(CN2CC3(CN(C)C3)c3c(n(C)c4cc(OC)ccc34)[C@H]2CO)c1	15
CO[C@@H]1CN(C)C(=O)c2ccc(NC(C)=O)cc2OC[C@@H](C)N(C(=O)C2CCCCC2)C[C@H]1C	0.0
Continuation:
SMILES	AF4-AF9 inh
O=C(C[C@H]1C=C[C@@H](NC(=O)C2CCC2)[C@H](CO)O1)NCc1ccccc1Cl	-11
O=C1CN(S(=O)(=O)c2cccc(F)c2)C[C@H]2[C@@H](c3ccc(C4=CCCC4)cc3)[C@H](CO)N12	-0.3
C[C@H](CO)N1C[C@H](C)[C@H](CN(C)Cc2ccncc2)Oc2ccc(NC(=O)Nc3ccc4c(c3)OCO4)cc2CC1=O	4.6
C[C@H]1CN([C@@H](C)CO)C(=O)Cc2cc(NC(=O)CCN3CCOCC3)ccc2O[C@H]1CN(C)CC1CCCCC1	0.2
C[C@@H]1CN([C@@H](C)CO)S(=O)(=O)c2ccc(-c3ccc(C#N)cc3)cc2O[C@@H]1CN(C)C(=O)C1CC1	-19
CN(C)CC(=O)N[C@H]1CC[C@H](CCn2cc(CN(C)C)nn2)O[C@@H]1CO	-8.5
C[C@@H]1CN([C@H](C)CO)S(=O)(=O)c2ccc(-c3cccc(C#N)c3)cc2O[C@H]1CN(C)Cc1ccccn1	2.1
C[C@@H]1CN([C@H](C)CO)C(=O)c2cccc(NS(=O)(=O)c3ccccc3)c2O[C@H]1CN(C)Cc1ccc(Cl)c(Cl)c1	2.6
C[C@@H]1CN([C@H](C)CO)C(=O)c2cc(NC(=O)Nc3cccc4ccccc34)ccc2O[C@H]1CN(C)S(=O)(=O)c1cn(C)cn1	1.3
COc1cccc(C(C)(O)c2nc(-c3ccccc3OC)cs2)c1 (centres undefined)	-9.9
CO[C@H]1CN(C)C(=O)c2ccc(NC(=O)c3ccc(F)cc3)cc2OC[C@@H](C)N(C)C[C@@H]1C	-0.3
CC(C)NC(=O)N[C@H]1CC[C@H](CCN)O[C@@H]1CO	-0.3
C[C@@H]1CN([C@@H](C)CO)C(=O)c2cccc(NC(=O)Nc3ccc4c(c3)OCO4)c2O[C@H]1CN(C)Cc1ccc(C(F)(F)F)cc1	1.7
C[C@@H]1CN([C@@H](C)CO)C(=O)Cc2cc(NS(C)(=O)=O)ccc2O[C@H]1CN(C)C(=O)Nc1ccccc1	-2.4
COC(=O)C1=C(C)N(C)C(=NCc2cc(OC)c(OC)c(OC)c2)NC1c1cccc(Cl)c1 (centres undefined)	-1.7
COCC(=O)N(C)C[C@@H]1Oc2cc(C#Cc3ccccc3)ccc2S(=O)(=O)N([C@H](C)CO)C[C@@H]1C	3.6
Cc1noc(C)c1NC(=O)Nc1ccc2c(c1)C(=O)N([C@H](C)CO)C[C@H](C)[C@H](CN(C)C(=O)Nc1ccc3c(c1)OCO3)OCCCC[C@@H](C)O2	-1.4
N#C[C@H]1[C@H](c2ccc(-c3cccnc3)cc2)[C@H](CO)N1C(=O)C1CCC1	-1.2
C[C@H](CO)N1C[C@H](C)[C@@H](CN(C)Cc2ccc3c(c2)OCO3)OCCCC[C@H](C)Oc2ccc(NS(=O)(=O)c3ccccc3)cc2C1=O	1.2
C[C@@H]1CN([C@@H](C)CO)S(=O)(=O)c2ccc(C#Cc3cccc(F)c3)cc2O[C@@H]1CN(C)C(=O)CN1CCOCC1	3.2
CCOc1ccccc1NC(=O)C1CCCC1	-0.7
C[C@@H]1CN([C@H](C)CO)C(=O)c2cc(NC(=O)Cn3cnnn3)ccc2O[C@@H]1CN(C)S(=O)(=O)c1ccc(F)cc1	-3.3
CCCCNC(=O)C[C@@H]1C[C@@]2(C(=O)OC)CCCCC=C2N(CCC2=CCCCC2)C1=O	-2.1
CCOC(=O)[C@@H](C)N1[C@@H](C)[C@H](c2ccccc2)Oc2ccc(Cl)cc2S1(=O)=O	-0.8
O=C(C[C@@H]1C=C[C@@H](NC(=O)CC2CC2)[C@H](CO)O1)NCc1ccc(-c2ccccc2)cc1	0.5
CCCNC(=O)C[C@H]1C[C@@H]2c3cc(NC(=O)NC4CCCCC4)ccc3O[C@@H]2[C@H](CO)O1	-1.9

Random excerpt: four compounds from above.
SMILES	AF4-AF9 inh
CCCNC(=O)C[C@H]1C[C@@H]2c3cc(NC(=O)NC4CCCCC4)ccc3O[C@@H]2[C@H](CO)O1	-1.9
CCCCNC(=O)C[C@@H]1C[C@@]2(C(=O)OC)CCCCC=C2N(CCC2=CCCCC2)C1=O	-2.1
CCOc1ccccc1NC(=O)C1CCCC1	-0.7
O=C(C[C@@H]1C=C[C@@H](NC(=O)CC2CC2)[C@H](CO)O1)NCc1ccc(-c2ccccc2)cc1	0.5
